Screening data: PubChem, several laboratories
Autofluor counter: compound fluorescence in toxin protease inhibitor counterscreen | compound autofluorescence counterscreen, microsphere flow cytometry; stronger effect = higher value | fluorescence intensity (no concentration beside the values) | hit rate 3.1% among 360,000 | AID 624483;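 active = at least 3 SD above the mean of all compounds, about 16000 in these data; inconclusive = too few beads counted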;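 note: 100 nL of 1 mM stock went into each well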
Mtb hypoxia inh: inhibitors of hypoxia-regulated fluorescent reporter in Mycobacterium tuberculosis. hit rate 0.1% among 300,000. AID 1159583. M. tuberculosis hypoxia-regulated fluorescent reporter, fluorescence. fluorescence inhibition, % (no concentration beside the values);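 active = 35 to 45% if threefold the growth effect, above 45% if 1.5-fold the growth effect; inactive = the rest, general growth blockers included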;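 note: wells of about 50 µL received 100 nL stock; 0% = vehicle wells and 100% = reference inhibitor wells; whole bacteria with a GFP reporter of the hypoxia response; strong numbers were not always called active; many hits fall short of the cut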
PrP 5UTR inh: inhibition of PrP 5' UTR reporter expression; cell-based PrP 5' UTR mRNA reporter, plate reader; hit rate 0.35% among 340,000; inhibition, % (no concentration beside the values);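 active = every replicate at 50% or more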;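 note: 0 = median of the neutral control wells; tested in H4 reporter cells; numbers are from one replicate; inactives centre near -14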
BJeLR lethal: kills HRASV12-expressing BJeLR cells; hit rate 0.17% among 300,000; inhibition, % (no concentration beside the values); BJeLR (HRASV12) viability, CellTiter-Glo ATP luminescence, 48 h; reference of the scale not given here;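 active = replicate mean above 50%; inconclusive = above 50% but judged a plate artefact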;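 note: 50 nL library stock added to about 25 µL; numbers are from one replicate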
ugtP null kill: kills S. aureus RN4220 lacking UgtP; S. aureus RN4220 ugtP deletion, OD600 growth, 16 h; some inactives read as strong as hits; growth inhibition, % (no concentration beside the values); hit rate 0.54% among 330,000;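 active = z-score under -3 and OD600 up to 0.15 on both plates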;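 note: plate controls were untreated wells for no effect and antibiotic for full effect; wells of about 80 µL received 100 nL stock; the first replicate is given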
Sa RN4220 lethal: kills Staphylococcus aureus RN4220; S. aureus RN4220 growth, OD600, 16 h; inhibition, % (no concentration beside the values); hit rate 0.33% among 330,000;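 active = z-score of -3 or lower and OD600 up to 0.18 on both plates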;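 note: plate controls were untreated cells for no effect and reference antibiotic for full effect; stock transfer was 100 nL into about 80 µL; one replicate is shown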
Mtb hypoxia inh growth: second read-out of Mtb hypoxia inh, no call of its own (marks repeat the call); growth inhibition, %; measured here: M. tuberculosis growth (absorbance);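 0% = vehicle and 100% = reference antibiotic; read after six days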
* hit, by the source's call; ? = inconclusive; . = no result given.

Molecule	Autofluor counter	Mtb hypoxia inh	Mtb hypoxia inh growth	PrP 5UTR inh	BJeLR lethal	ugtP null kill	Sa RN4220 lethal
COc1ccc(-c2cc(-c3nnc(COC(=O)c4ccc(O)cc4)o3)c3ccccc3n2)cc1OC	4010	-3	-3	-19	8	-21	-0.9
CCc1noc(C)c1C(=O)N(CC(C)C)c1c(N)n(Cc2ccccc2)c(=O)[nH]c1=O	5147	-4	0	-16	.	2	-1.5
Cc1cnc(C(=O)Nc2ccccc2C(=O)N2CCOCC2)cn1	3922	.	.	-15	0	8	-1.8
N#CC(c1ccccc1)N(CCCCl)C(=O)c1ccc(Br)cc1 (stereo unspecified)	2106	9	0	-46	2	20	3.4
COc1cccc2sc(Nc3nc(C)c(C(C)=O)s3)nc12	3928	0	7	-60	1	-11	2.5
O=C(NC1CCCC1)c1ccc(CSc2nc3ccncc3n2Cc2ccc(F)cc2)cc1	6858	17	15	-16	-6	0	-7.7
O=C(c1cccc(N2C(=O)C3C4C=CC(C4)C3C2=O)c1)N1CCN(c2ccccc2F)CC1 (stereo unspecified)	6173	14	8	-26	2	-7	2.0
CCOC(=O)c1ccccc1N/C=C1\CCCCC1=O	9445	2	13	-29	4	-10	3.1
C=CCn1c(SCC(=O)c2c(N)n(C)c(=O)n(C)c2=O)nnc1-c1ccccc1F	4881	7	18	-17	-5	3	0.7
Cc1nc2ccccc2c2oc(C(=O)Nc3ccc4c(c3)OCCO4)cc12	4536	.	.	-6	13	5	4.0
CC(=O)C1=C(O)C(=O)N(CCN(C)C)C1c1ccc(Cl)cc1 (stereo unspecified)	20540*	5	10	2	6	-7	10
O=C(Cc1ccccc1)NCC(=O)NN=Cc1ccc([N+](=O)[O-])s1	.	4	10	.	.	9	16
O=S(=O)(c1ccccc1)c1nc(-c2cccs2)oc1NCc1cccnc1	4416	14	7	8	.	0	-0.1
COc1ccc(-c2noc3c2-c2nc(-c4cccc(C)c4)sc2CC3)cc1	3807	1	1	-16	2	9	-3.1
CCOc1ccc(C2NC(=S)NC3=C2CCc2ccccc23)cc1 (stereo unspecified)	3899	5	8	-23	4	10	0.8
CC1CCCN(S(=O)(=O)c2ccc3c(c2)CCN3C(=O)C2CCC2)C1 (stereo unspecified)	3995	.	.	-27	-1	0	0.3
CNC(=S)N(CCc1c(C)[nH]c2ccc(F)cc12)Cc1cccnc1	3224	13	-6	-14	-8	-5	6.2
COCCN(C(=O)COC(=O)c1ccccc1Cc1ccccc1)c1c(N)n(Cc2ccccc2)c(=O)[nH]c1=O	.	-3	-18	-15	2	-2	-0.7
Cc1ccc(Cn2nc(C)cc2C(=O)Nc2ccccc2Cl)cc1	3300	12	-3	-53	-6	4	-0.5
COC(=O)NCC(c1cccnc1)N1CCN(c2ccccc2)CC1 (stereo unspecified)	4955	1	2	-5	12	1	8.5
CCn1nc(C)cc1C(=O)N1CCCC(CCC(=O)NCc2ccccc2F)C1 (stereo unspecified)	5785	0	7	-18	-8	2	8.1
CCCCc1ccc(S(=O)(=O)N2CCN(C(=O)c3ccco3)CC2)cc1	2486	4	-4	-30	-6	5	1.6
O=C(CCC(=O)N1CCN(c2ccccc2)CC1)Nc1nnc(C2CCCCC2)s1	3230	-16	3	-22	9	2	1.8
Cc1ccc(CCNC(=O)c2ccc(CS(=O)(=O)Cc3ccc(F)cc3)o2)cc1	4496	-1	-3	6	-9	5	1.0
Cc1ccc(NS(=O)(=O)c2cc(C(=O)N3CCOCC3)ccc2C)cc1	9902	6	4	-18	3	4	3.3
COc1ccc(NC(=O)CSc2n[nH]c(-c3ccncc3)n2)c([N+](=O)[O-])c1	6397	11	1	-7	-2	3	6.4
O=C(Nc1ccccc1)c1cccc(N2C(=O)C3C4CC(C(Br)C4Br)C3C2=O)c1 (stereo unspecified)	4497	5	-2	-9	-3	4	4.2
CC(C)(C)OC(=O)N1C[C@H](O)C[C@H]1C(=O)OCC(=O)c1ccc([N+](=O)[O-])cc1	4258	-2	3	-9	-9	1	3.2
Cc1nn(CC(=O)NCc2ccc(Cl)cc2)c(C)c1[N+](=O)[O-]	9031	10	4	-15	5	-4	4.1
Cc1ccccc1OCC(=O)Nc1ccccc1-c1ccccc1NC(=O)COc1ccccc1C	2449	9	-6	-16	-3	16	2.4

More records.
Molecule	Autofluor counter	Mtb hypoxia inh	Mtb hypoxia inh growth	PrP 5UTR inh	BJeLR lethal	ugtP null kill	Sa RN4220 lethal
CCCNC(=O)C(=O)Nc1ccc(N(C)C)cc1	4650	.	.	-76	-2	1	-1.6
COC(=O)c1ccc(COc2cccc(C)c2C)cc1	3428	-7	4	-27	5	14	5.6
O=C(Cc1c[nH]c2ccccc12)Nc1ccc(N2CCOCC2)cc1	3059	8	10	-18	2	19	-2.8
CSc1ccc(S(=O)(=O)NCCCOC(C)C)cc1	4664	2	2	-27	-3	-3	6.0
Cc1ccc(Sc2cc(N3CCOCC3)nc(-c3ccccc3)n2)cc1	?	2	1	-19	-2	57	13
CCOc1ccccc1NC(=O)N1CCCC1C(=O)Nc1ccc(-n2cnnn2)c(C)c1 (stereo unspecified)	2527	.	.	-10	-1	4	5.5
COc1ccc(NC(=O)c2ccc(N3C(=O)C4CC=C(Cl)CC4C3=O)cc2)cc1 (stereo unspecified)	3972	-5	9	-5	10	-2	5.2
Cc1cccc(-n2c(Cn3nc(C)c([N+](=O)[O-])c3C)n[nH]c2=S)c1	3040	17	6	-11	2	-1	-11
C=CCn1c(Cc2cccs2)nnc1SC/C=C/c1ccccc1	9857	7	5	.	-13	4	4.0
Cc1c(N=Cc2ccc(Br)s2)cccc1[N+](=O)[O-]	23875*	6	4	11	12	3	1.2
C=CCC1NS(=O)(=O)OC(CCc2ccccc2)C1O (stereo unspecified)	2982	8	7	-12	-5	1	8.7
COCCn1c(C)cc(C(=O)Cn2nc(C(=O)O)c3ccccc3c2=O)c1C	4439	2	4	-52	1	3	1.8
Cc1cc(C)c(CN2CCN(Cc3ccc(C)o3)C(CCO)C2)c(-n2cccn2)c1 (stereo unspecified)	3219	12	1	-25	6	3	3.2
CC(=O)N(O)CCCCCNC(=O)CCC(=O)N(O)CCCCCNC(=O)CCC(=O)N(O)CCCCCNC(=O)CCC(=O)O	3466	7	4	-6	.	0	8.9
CC(C)C(=O)N1CCN(C2=NS(=O)(=O)c3ccccc32)CC1	3837	4	0	-8	.	4	4.5
Cc1cc(C)n(S(=O)(=O)c2ccc(C)c(C)c2C)n1	4325	3	-2	-19	-4	-5	1.5
COc1ccc(NC(=O)C(c2ccccc2)N(C)C(=O)c2ccc(=O)[nH]c2)cc1 (stereo unspecified)	2116	8	2	2	-8	2	2.3
O=C1c2ccccc2C(=O)N1c1ccc(Cc2ccncc2)cc1	4392	13	9	-8	-3	14	2.8
N#C[C@]1(S(=O)(=O)c2ccccc2)C[C@@H]2ON=C(c3cccc(Br)c3)[C@@H]2C1	3839	.	.	-7	3	.	.
CC(C)(C)c1ccc(/C=C(\C#N)C(=O)NC2CC2)cc1	4917	9	3	.	1	-3	3.0
CCCCc1nc2ccccc2c(NC(=O)CN2CCN(C)CC2)c1CCC	2862	13	7	0	-13	6	5.7
Cc1cc(C)cc(NC(=O)Nc2cc(S(=O)(=O)N(C)C)ccc2C)c1	4383	0	2	.	5	-11	-1.8
O=C(NNC(=O)c1cccnc1)c1ccncc1	3744	6	7	-23	-1	5	-0.7
COC(=O)/C(=C\Nc1ccccc1)NC(=O)c1ccc(Cl)cc1Cl	2506	15	11	-12	-11	5	6.5
COc1ccc(OC)c(N/C(N)=N/c2nc(C)cc(C)n2)c1	3318	5	11	-22	1	16	5.5
O=S(=O)(Nc1cc(F)ccc1F)c1cccc2nsnc12	3477	2	4	-20	-4	7	7.0
Cc1ccccc1N1CN(Cc2ccco2)CNC1=S	2077	14	11	-9	4	9	3.7
O=C(Nc1ccc(F)cc1)NC1CCCCCCC1	5500	.	.	-35	2	-9	-3.1
COCCNC(=O)C(=O)NCC1OCCCN1S(=O)(=O)c1cccs1 (stereo unspecified)	2219	13	13	-24	9	1	2.4
CCc1nnc2c(N(C)C)nc3ccccc3n12	2592	19	7	-3	.	9	0.4

The results go on:
Molecule	Autofluor counter	Mtb hypoxia inh	Mtb hypoxia inh growth	PrP 5UTR inh	BJeLR lethal	ugtP null kill	Sa RN4220 lethal
CC1c2cc3c(cc2CCN1S(=O)(=O)c1ccccc1)OCCCO3 (stereo unspecified)	6252	8	2	-11	-1	0	2.4
COC(=O)c1sc(S(=O)(=O)Oc2ccccc2NC(C)=O)c(C(=O)OC)c1C	5864	-12	17	-4	.	0	0.4
CC1=C(C(=O)Nc2ccccn2)C(c2ccc(Br)cc2)NC(=S)N1 (stereo unspecified)	2552	-15	-3	-39	-5	-8	2.3
O=C(N[C@@H]1c2ccccc2CC[C@@H]1OCc1ccccc1)c1ccc(C(F)(F)F)cc1	3302	3	6	-8	.	12	-0.5
O=C(NCCCN1CCCC1=O)c1ccc(S(=O)(=O)Nc2cccc(C(F)(F)F)c2)cc1	.	6	5	-16	11	4	6.0
CC(C)N(C(=O)N1CCN(c2ccnc3cc(Cl)ccc23)CC1)C(C)C	3703	15	6	-15	7	-1	0.7
CC=NNC(=O)COc1cc(C)ccc1C	.	7	0	.	.	4	3.7
Cc1ccc(NC(=O)C2CC(=O)n3c(nc4ccccc43)N2)cc1C (stereo unspecified)	3475	-15	2	-8	-6	2	3.8
Cc1cc(C)c2cccc(N)c2n1	2544	-2	15	-11	-19	-1	1.7
CCOC(=O)c1ccc(NC(=O)CSc2nc3c(c(=O)n2C)SC(C)C3)cc1 (stereo unspecified)	5573	-4	-1	-3	-3	-11	-5.4
CC(C)NC(=O)c1ccccc1-c1nc(-c2ccccc2Cl)no1	4999	.	.	-9	2	10	-3.0
COc1cc(NC(=O)CCCNC(=O)c2ccc(Cl)cc2)cc(OC)c1	4205	0	-2	-15	16	3	4.9
COc1ccc(OC)c2sc(N3CCCCC3)nc12	9863	3	9	-36	-23	-3	4.7
CCOc1ccc(CN2CCNC(=O)C2CC(=O)NCCC2=CCCCC2)cc1 (stereo unspecified)	4928	2	6	-27	-2	2	3.0
